Mtb hypoxia rep = inhibitors of hypoxia-regulated fluorescent reporter in Mycobacterium tuberculosis; M. tuberculosis hypoxia-regulated fluorescent reporter, fluorescence; fluorescence inhibition, % (concentration not given with the values); hit rate 0.1% among 300,000;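 active means 35 to 45% if threefold the growth effect, above 45% if 1.5-fold the growth effect; inactive means the rest, general growth blockers included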;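 further: wells of about 50 µL received 100 nL stock; 0% = vehicle wells and 100% = reference inhibitor wells; whole bacteria with a GFP reporter of the hypoxia response; strong numbers were not always called active; many hits fall short of the cut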
Autofluor counter = compound fluorescence in toxin protease inhibitor counterscreen. compound autofluorescence counterscreen, microsphere flow cytometry; stronger effect = higher value. fluorescence intensity (test concentration not listed). hit rate 3.1% among 360,000. AID 624483;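 active means at least 3 SD above the mean of all compounds, about 16000 in these data; inconclusive means too few beads counted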;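 further: 100 nL of 1 mM stock went into each well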
BJeLR lethal = kills HRASV12-expressing BJeLR cells; BJeLR (HRASV12) viability, CellTiter-Glo ATP luminescence, 48 h; reference of the scale not given here; inhibition, % (concentration not given with the values); hit rate 0.17% among 300,000; AID 1554;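 active means replicate mean above 50%; inconclusive means above 50% but judged a plate artefact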;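 further: 50 nL library stock added to about 25 µL; numbers are from one replicate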
RN4220 kill = kills Staphylococcus aureus RN4220; AID 1259311; hit rate 0.33% among 330,000; S. aureus RN4220 growth, OD600, 16 h; inhibition, % (test concentration not listed);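 active means z-score of -3 or lower and OD600 up to 0.18 on both plates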;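 further: plate controls were untreated cells for no effect and reference antibiotic for full effect; stock transfer was 100 nL into about 80 µL; one replicate is shown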
Sa ugtP lethal = compounds lethal to S. aureus RN4220 ugtP deletion mutant | hit rate 0.54% among 330,000 | growth inhibition, % (no concentration beside the values) | AID 1259309 | OD600 growth, 16 h; some inactives read as strong as hits;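 active means z-score under -3 and OD600 up to 0.15 on both plates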;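 further: plate controls were untreated wells for no effect and antibiotic for full effect; wells of about 80 µL received 100 nL stock; the first replicate is given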
PrP UTR inh = inhibition of PrP 5' UTR reporter expression. hit rate 0.35% among 340,000. inhibition, % (test concentration not listed). cell-based PrP 5' UTR mRNA reporter, plate reader;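 active means every replicate at 50% or more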;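 further: 0 = median of the neutral control wells; tested in H4 reporter cells; numbers are from one replicate; inactives centre near -14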
Mtb hypoxia rep growth = second read-out of Mtb hypoxia rep, no call of its own (marks repeat the call); growth inhibition, %; measured here: M. tuberculosis growth (absorbance);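 0% = vehicle and 100% = reference antibiotic; read after six days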
Numbers without * were called inactive; ? = inconclusive; . = no result given; & = joins results of further samples.

Screens in order: Mtb hypoxia rep	Mtb hypoxia rep growth	Autofluor counter	BJeLR lethal	RN4220 kill	Sa ugtP lethal	PrP UTR inh
CCOc1ccc([N+](=O)[O-])cc1CNCCc1ccccc1
    3.8	4.6	5047	0.0	0.8	-9.0	-59.7
CC(=O)c1c(C)[nH]c(C(=O)CN2C(=O)NC(CCc3ccccc3)C2=O)c1C (configuration not stated)
    -9.0	-2.6	?	8.4	0.0	1.2	-18.6
Cc1ccc(S(=O)(=O)Nc2c(C)n(C)n(-c3ccccc3)c2=O)c(C)c1
    11.8	5.1	2703	-3.0	1.7	8.7	-36.7
CCCCN(C(=O)c1ccc(N2CCCC2=O)cc1)c1c(N)n(CCC)c(=O)[nH]c1=O
    3.4	4.4	7952	.	-0.3	3.9	-21.7
COc1ccc(CNC(=O)C2CCN(S(=O)(=O)c3ccc(-c4nn[nH]n4)cc3)CC2)cc1
    4.9	7.8	2388	9.1	4.1	-2.2	-4.5
CCOc1ccc(N2C(=O)CC(S/C(N)=N/N=Cc3cccs3)C2=O)cc1 (configuration not stated)
    14.1	2.0	.	.	5.7	4.4	.
CCOC(=O)c1ccc(NC(=O)c2cc(C)nc3ccccc23)cc1
    18.0	9.4	3173	-0.5	2.8	2.4	-1.9
COC(=O)C(Cc1ccccc1)NC(=O)Nc1ccc(S(N)(=O)=O)cc1 (configuration not stated)
    9.8	1.6	.	.	4.1	4.2	.
c1ccc(-c2nnc(SCc3nnc(-c4cccs4)o3)o2)cc1
    12.9	6.8	3243	-10.9	7.5	4.8	-19.1
O=C(Nc1cccc(C(F)(F)F)c1)OC1CN2CCC1CC2 (configuration not stated)
    11.5	3.1	3152	1.1	-1.3	8.8	-9.0
COc1ccc(S(=O)(=O)N2CCCCCC2)cc1C(=O)OCC(=O)NC1CCS(=O)(=O)C1 (configuration not stated)
    8.6	2.5	3590	.	4.6	5.3	-16.8
O=C(CNC(=O)c1ccc2c(c1)OCO2)NN=Cc1cc(Br)ccc1O
    2.4	-1.3	.	.	8.0	0.3	.
CCc1ccc(OCC(=O)Nc2ccc(-c3cc4ccccc4oc3=O)c(OC)c2)cc1
    -18.3	-3.1	2529	-1.1	-1.5	-12.0	-101.3
Cc1ccc(OCC(=O)Nc2cccc(S(=O)(=O)N3CCOCC3)c2)c([N+](=O)[O-])n1
    9.9	0.2	2719	2.2	2.4	-1.1	-17.7
CC(=O)Nc1ccc(S(=O)(=O)NCc2cn3c(C)csc3n2)cc1
    7.8	7.4	5271	2.7	-0.8	2.1	-29.5
CC(C)CN(C(=O)COC(=O)c1ccc(Br)o1)c1c(N)n(Cc2ccccc2)c(=O)[nH]c1=O
    3.5	1.0	?	-0.7	2.3	1.9	1.3
Cc1cc(C)cc(NC(=O)C2CCCN(S(=O)(=O)c3ccc4[nH]c(=O)ccc4c3)C2)c1 (configuration not stated)
    .	.	6276	-9.0	.	.	-7.9
COc1ccc(N2CCN(C(=O)CNC(=O)c3nn(-c4ccc(OC)cc4)c(=O)c4ccccc34)CC2)cc1
    -0.4	5.1	3899	0.9	5.0	7.3	0.7
COc1ccc(C(=O)NNC(=O)c2cccc(F)c2)cc1
    1.2	5.9	3963	4.0	1.5	10.8	-23.2
O=[N+]([O-])c1ccc(CN2CCN(c3nc4ccccc4s3)CC2)cc1
    -0.7	-8.7	3085	-4.4	0.4	9.9	-3.0
OCCC1CN(Cc2cccn2-c2nccs2)CCN1Cc1ccccc1 (configuration not stated)
    -3.6	6.2	3921	0.5	6.0	3.8	10.4
O=C(c1ccc(OC(F)(F)F)cc1)c1ncc[nH]1
    11.0	-3.3	2993	4.2	2.6	-0.2	-28.4
Cc1ccc([C@@H]2CC=C(C(=O)O)[C@H](c3ccc(Br)cc3)N2S(=O)(=O)c2ccc(C)cc2)cc1
    -13.2	-5.4	3885	.	10.9	6.6	-5.6
O=C(NCc1ccccc1F)C1CCN(C(=O)NCc2ccccc2)CC1
    2.2	-2.3	17003*	-2.6	0.8	11.7	-21.7
COc1ccc(NS(=O)(=O)c2ccc(SC)cc2)c(OC)c1
    8.7	8.6	21230*	-9.6	16.9	-6.6	-17.8
COc1cccc2[nH]c3c(N4CCc5ccccc5C4)ncnc3c12
    9.1	-4.0	.	3.8	0.5	-12.5	.
COc1ccc(C(=O)NNC(=O)c2cc(C)[nH]n2)cc1
    2.0	2.4	3219	-0.5	-5.8	-10.3	-20.1
C=CCCC(Cc1ccc(F)cc1)C(=O)OCC(NC(=O)C(CC=C)CC(=O)N(CCO)Cc1ccccc1)c1ccccc1 (configuration not stated)
    -4.4&2.6	-1.5&4.5	.	.	-4.1&-5.7	3.8&-24.3	.
S=C(NCCc1ccccc1)Nc1ccc(Cl)cc1Cl
    1.7	6.5	3010	0.3	8.3	-1.8	-31.6
O=C(NC(Cc1ccccc1)C(=O)O)/C(=C/c1ccc([N+](=O)[O-])cc1)NC(=O)c1ccccc1Br (configuration not stated)
    -1.4	-6.9	2111	-9.9	4.5	5.9	-2.8

Laid out differently: entries from further up
| Structure | Mtb hypoxia rep | Mtb hypoxia rep growth | Autofluor counter | BJeLR lethal | RN4220 kill | Sa ugtP lethal | PrP UTR inh |
| --- | --- | --- | --- | --- | --- | --- | --- |
| COc1ccc(C(=O)NNC(=O)c2cc(C)[nH]n2)cc1 | 2.0 | 2.4 | 3219 | -0.5 | -5.8 | -10.3 | -20.1 |
| OCCC1CN(Cc2cccn2-c2nccs2)CCN1Cc1ccccc1 (configuration not stated) | -3.6 | 6.2 | 3921 | 0.5 | 6.0 | 3.8 | 10.4 |

Shown as a markdown table: part of the list above.
| mol | Mtb hypoxia rep | Mtb hypoxia rep growth | Autofluor counter | BJeLR lethal | RN4220 kill | Sa ugtP lethal | PrP UTR inh |
| --- | --- | --- | --- | --- | --- | --- | --- |
| CC(=O)c1c(C)[nH]c(C(=O)CN2C(=O)NC(CCc3ccccc3)C2=O)c1C (configuration not stated) | -9.0 | -2.6 | ? | 8.4 | 0.0 | 1.2 | -18.6 |
| Cc1ccc(S(=O)(=O)Nc2c(C)n(C)n(-c3ccccc3)c2=O)c(C)c1 | 11.8 | 5.1 | 2703 | -3.0 | 1.7 | 8.7 | -36.7 |
| CCCCN(C(=O)c1ccc(N2CCCC2=O)cc1)c1c(N)n(CCC)c(=O)[nH]c1=O | 3.4 | 4.4 | 7952 | . | -0.3 | 3.9 | -21.7 |
| COc1ccc(CNC(=O)C2CCN(S(=O)(=O)c3ccc(-c4nn[nH]n4)cc3)CC2)cc1 | 4.9 | 7.8 | 2388 | 9.1 | 4.1 | -2.2 | -4.5 |
| CCOc1ccc(N2C(=O)CC(S/C(N)=N/N=Cc3cccs3)C2=O)cc1 (configuration not stated) | 14.1 | 2.0 | . | . | 5.7 | 4.4 | . |
| CCOC(=O)c1ccc(NC(=O)c2cc(C)nc3ccccc23)cc1 | 18.0 | 9.4 | 3173 | -0.5 | 2.8 | 2.4 | -1.9 |

(continued)
Screens in order: Mtb hypoxia rep	Mtb hypoxia rep growth	Autofluor counter	BJeLR lethal	RN4220 kill	Sa ugtP lethal	PrP UTR inh
COc1cc(OC)c(NC(=O)c2ccoc2C)cc1Cl
    4.5	4.5	11077	-5.9	3.5	4.7	-10.8
COc1cc2nc(CSc3nc(-c4ccc(F)cc4)cs3)[nH]c(=O)c2cc1OC
    0.2	2.0	8974	1.2	8.7	-22.0	-19.3
COc1ccccc1CNC(=O)CSc1ccc(-c2cccc([N+](=O)[O-])c2)nn1
    8.0	12.9	4388	4.2	2.0	0.8	1.2
Brc1ccc(-c2csc(NN=Cc3ccco3)n2)cc1
    18.1	9.0	.	.	0.9	1.9	.
CCOC(=O)N1CCN(C(=O)CSc2nnc(Cc3cccn3C)n2CCc2ccccc2)CC1
    4.0	5.6	11386	-0.8	5.3	-3.6	-18.2
O=C(O)c1ccc(CSc2nnc(-c3cccnc3)n2-c2ccc(Br)cc2)cc1
    5.2	-2.5	2918	-1.5	4.7	-1.5	-17.0
CCCCC(=O)NC(c1ccc(C(C)C)cc1)c1ccc2cccnc2c1O (configuration not stated)
    0.5	0.5	3810	53.7*	33.8	-3.5	37.7
CCOC(=O)CCc1c(C(=O)OCC)[nH]c(CC)c1C(=O)OCc1ccccc1
    12.2	13.9	6044	4.7	0.5	25.5	-16.5
CCC(C)(C)n1nnnc1C(c1cc2cc(C)ccc2[nH]c1=O)N1CCCc2ccccc21 (configuration not stated)
    4.8	-4.4	10565	3.2	14.8	-1.9	-22.3
Cc1oncc1-c1csc(-c2ccccc2)n1
    3.1	-0.1	2248	-1.5	10.9	-9.0	-24.4
Cc1cc([N+](=O)[O-])nn1CCCC(=O)NC(C)c1ccccc1 (configuration not stated)
    0.9	1.5	2087	6.8	6.6	-4.7	-20.2
COC(=O)c1ccc(C(=O)OC)c(=O)[nH]1
    3.9	1.1	4030	2.8	3.7	-1.8	-14.9
O=C(Nc1ccccc1Br)C1CCN(C(=O)Cc2ccccc2)CC1
    6.9	7.8	9380	28.2	3.8	-2.9	-6.5
CCn1c(=O)c(=O)[nH]c2cc(C(=O)N(C)Cc3ccc(OC)c(F)c3)ccc21
    6.7	1.6	5027	-10.8	0.3	5.6	-14.1
CC(=O)N1CCC(=NNc2ccc(S(=O)(=O)N3CCOCC3)cc2[N+](=O)[O-])CC1
    1.9	8.8	8626	1.6	5.5	11.0	-32.2
CC(OC(=O)/C=C/c1ccccc1)C(=O)NC1CCCCC1C (configuration not stated)
    -2.0	-1.2	5540	.	1.2	0.7	-4.0
CCOC(=O)C(=O)NCc1ccc(/C=C2/N=C(C)C(C(=O)OCC)=C2O)o1
    11.0	7.6	3182	-4.4	11.5	7.5	-0.8
N#Cc1nc(-c2ccccc2F)oc1NCCc1ccccc1
    .	.	10751	-0.9	0.0	-5.2	-9.3
C#CCOCCOCCOCCNc1nc(N2CCN(C(=O)C(C(C)CC)n3cc(C(N)Cc4ccc(O)cc4)nn3)CC2)nc(N2CCN(C(=O)C(C(C)CC)n3cc(C(N)Cc4ccc(O)cc4)nn3)CC2)n1 (configuration not stated)
    .	.	.	.	4.2	-2.2	.
CC1(C)Nc2ccccc2N(CC(=O)N2CCCCC2)C1=O
    .	.	2807	-5.2	4.0	4.9	2.9
Cc1ccc(NC(=O)/C(C#N)=C/c2cccs2)c(C)c1
    .	.	2506	-0.5	0.7	-6.9	-80.2
O=C(COc1ccc(Br)cc1)NCCCNC(=O)c1cnccn1
    4.7	12.1	5576	-1.5	1.0	10.3	-7.6
Cc1nn(C)cc1CNC(=O)C1(C)CC1(Cl)Cl (configuration not stated)
    5.7	8.3	9775	-5.1	2.9	10.0	-22.2
CC(C)CC1NC(=O)N(CC(=O)N2CCCc3ccccc32)C1=O (configuration not stated)
    6.0	7.3	4294	-2.6	3.8	-0.2	-28.8
COC(=O)C1Cc2c([nH]c3ccccc23)CN1 (configuration not stated)
    8.0	6.0	10984	-3.0	7.1	-6.8	3.6
CC(=O)O/C(=C\c1cn(C(C)=O)c2ccccc12)C(=O)O
    9.9	-2.2	4375	-4.8	3.9	6.5	6.2

Ordered by molecular weight (low to high): four of the compounds above.
Screens in order: Mtb hypoxia rep	Mtb hypoxia rep growth	Autofluor counter	BJeLR lethal	RN4220 kill	Sa ugtP lethal	PrP UTR inh
CC1(C)Nc2ccccc2N(CC(=O)N2CCCCC2)C1=O
    .	.	2807	-5.2	4.0	4.9	2.9
CC(C)CC1NC(=O)N(CC(=O)N2CCCc3ccccc32)C1=O (configuration not stated)
    6.0	7.3	4294	-2.6	3.8	-0.2	-28.8
O=C(COc1ccc(Br)cc1)NCCCNC(=O)c1cnccn1
    4.7	12.1	5576	-1.5	1.0	10.3	-7.6
O=C(O)c1ccc(CSc2nnc(-c3cccnc3)n2-c2ccc(Br)cc2)cc1
    5.2	-2.5	2918	-1.5	4.7	-1.5	-17.0
